High-throughput results (PubChem)
INS promoter inh: TRM-6 insulin promoter activity inhibition; TRM-6 cells (human fetal islet line), insulin promoter-eGFP reporter, imaging; reporter expression induced with tamoxifen; inhibition, % at 2 µM; hit rate 0.9% among 130,000;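 active = inhibition above the mean plus 3 SD, with well images judged a real hit on visual review, cut at about 60% in these data, passing the limit was not always enough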
GALR2 agonist: GALR2 (human) receptor agonism. GALR2-expressing cells, agonist activation read-out. activation, %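 (tested at 5 µM)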. hit rate 0.48% among 140,000;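 active = above mean plus 3 SD of all compounds, about 5% in these data, not always enough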;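 also: 0% = vehicle buffer wells and 100% = reference agonist at full effect; tested in CHO reporter cells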
RGS16-Gao HTS: RGS16-Galphao interaction regulator (human); O15492+P09471; bead-based flow cytometry RGS16-Galphao binding, fluorescence; actives lie on both sides; binding response (% of control), % at 10 µM; hit rate 0.38% among 220,000;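 active = below 25% or above 175%, edge rows of some plates excepted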;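 also: Galphao activated by GDP with aluminum fluoride before binding; 100% = wells without compound and 0% = beads without RGS; some results beyond the cut were filed as inactive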
PKD1 inh: blocks activity of human protein kinase D1; Q15139; inhibition, %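 (about 10 µM by stock and volumes)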; hit rate 0.056% among 200,000; PKD1 kinase fluorescence polarization assay;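 active = inhibition of 50% or more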;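 also: controls were vehicle for no effect and a reference inhibitor for full effect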
Target sequence (Q15139 whole entry, looked up): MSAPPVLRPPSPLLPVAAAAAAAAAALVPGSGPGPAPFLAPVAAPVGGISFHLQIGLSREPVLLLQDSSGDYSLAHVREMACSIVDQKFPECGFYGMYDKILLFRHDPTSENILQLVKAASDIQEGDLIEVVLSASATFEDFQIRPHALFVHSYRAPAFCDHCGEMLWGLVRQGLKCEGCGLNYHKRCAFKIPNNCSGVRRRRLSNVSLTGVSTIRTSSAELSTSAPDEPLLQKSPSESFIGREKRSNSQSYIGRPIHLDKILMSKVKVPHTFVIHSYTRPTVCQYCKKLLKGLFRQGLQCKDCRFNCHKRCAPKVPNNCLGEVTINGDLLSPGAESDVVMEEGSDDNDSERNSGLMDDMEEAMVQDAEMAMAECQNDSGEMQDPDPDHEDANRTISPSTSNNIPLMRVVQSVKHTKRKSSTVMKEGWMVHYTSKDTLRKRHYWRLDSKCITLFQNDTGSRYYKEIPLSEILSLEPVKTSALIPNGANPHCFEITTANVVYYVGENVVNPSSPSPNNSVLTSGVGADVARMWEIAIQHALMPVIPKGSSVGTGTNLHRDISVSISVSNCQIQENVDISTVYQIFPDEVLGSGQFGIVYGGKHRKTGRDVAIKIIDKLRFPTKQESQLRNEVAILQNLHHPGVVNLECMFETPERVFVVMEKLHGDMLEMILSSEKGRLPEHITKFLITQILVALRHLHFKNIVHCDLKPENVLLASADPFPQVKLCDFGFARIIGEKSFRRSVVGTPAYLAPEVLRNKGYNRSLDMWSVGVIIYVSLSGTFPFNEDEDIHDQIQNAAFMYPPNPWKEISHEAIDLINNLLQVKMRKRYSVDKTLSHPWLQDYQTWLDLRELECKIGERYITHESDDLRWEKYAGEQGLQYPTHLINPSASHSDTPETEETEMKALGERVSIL
HSV replic up: increases HSV replication in cells. hit rate 0.005% among 220,000. maximum fold increase. AID 1956. HSV replication augmentation in cells, fold increase;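 active = peak rise of 1.5-fold or more in the series; tested in PC3 cells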;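 also: first round at 10 µM; read as green reporter fluorescence; hits show the peak of a series up to 25 µM; 1 = signal of infected wells without compound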
INS promoter inh cell count: recorded beside INS promoter inh, whose call it bears; normalized cell count, %; measured here: cell count, toxicity; reference of the scale not given here;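 cells exposed to compound for 48 h; stained nuclei by imaging scaled within each plate; lower means fewer cells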
HSV replic up primary fold: second read-out of HSV replic up, no call of its own (marks repeat the call); fold increase; compound at 10 µM; measured here: primary screen fold increase 10 uM; tested in PC3 cells;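 GFP signal in the first replicate; 1 = infected wells without compound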
An asterisk follows results filed as active; i = inactive; . = not tested or not shown; [ ] = dose if it differs, or a comment. Rows are unselected; any-hit rate near 1.3%.

SMILES	INS promoter inh	INS promoter inh cell count	GALR2 agonist	RGS16-Gao HTS	PKD1 inh	HSV replic up	HSV replic up primary fold
CC(=O)c1ccc(C(=O)N2CCc3c([nH]c4ccccc34)C2c2cccc(C)n2)s1 (stereo not given)	.	.	.	104	.	i	0.88
O=C(CC1CCCC1)NCCc1cn2ccccc2n1	.	.	-3.2	120	-10	.	.
O=C(O)c1[nH]c2ccc(Br)cc2c1CCN1C(=O)c2cccc([N+](=O)[O-])c2C1=O	.	.	.	100	.	i	1.1
NS(=O)(=O)c1cccnc1Nc1c(Cl)cccc1Cl	7	126	-1.8	213*[activator]	-4	i	0.96
Cc1ccc(S(=O)(=O)N/N=C\C=C\c2ccccc2)cc1	30	146	-0.5	101	6	i	0.95
C#CCOCCOCCOCCNc1nc(N2CCN(C(=O)C([C@@H](C)CC)n3cc(C(N)Cc4ccc(O)cc4)nn3)CC2)nc(N2CCN(C(=O)[C@H](CCC(=O)O)n3cc(C(N)Cc4ccc(O)cc4)nn3)CC2)n1 (stereo not given in full)	.	.	.	99	-2	i	0.81
O=c1oc(-c2ccc([N+](=O)[O-])cc2)nc2ccc(O)cc12	.	.	.	100	-6	i	0.98
Cc1cc(=O)n(CC=C(Cl)Cl)c2ccccc12	.	.	-0.3	113	-1	i	0.97
Cc1csc(NC(=O)C2CCCN(S(=O)(=O)c3ccc(Br)s3)C2)n1 (stereo not given)	7	71	-1.0	96	2	i	0.99
CCC(C)(C)NC(=O)Nc1cc(Cl)ccc1OC	19	125	.	96	0	i	1
CCN(CC)CC(=O)Nc1ccc(C)cc1Br	49	137	-2.4	109	2	i	0.97
Cc1cc(NS(=O)(=O)c2ccc(NC(=O)C(CC(C)C)N3C(=O)c4ccccc4C3=O)cc2)nc(C)n1 (stereo not given)	-23	55	-0.5	98	2	i	0.96
CCOC(=O)C1=C(N)OC2=C(C(=O)CC(C)(C)C2)C1c1ccccc1OCC#N (stereo not given)	-50	68	-2.1	102	27	i	0.89
COCCCNC(=O)C(=O)NC1CCCCCC1	.	.	-0.8	125	-7	i	0.93
Cc1ccccc1NC(=O)Nc1ccc(C(F)(F)F)cc1	.	.	.	100	-8	i	0.96
Cn1c(=O)cc(N2CCCCC2)[nH]c1=O	.	.	-1.4	109	0	i	0.94
O=C(CCN1C(=O)c2ccccc2C1=O)Nc1ccc(S(=O)(=O)NC2=NCCCCC2)cc1	29	60	-0.7	104	-1	i	0.72
Cc1ccc(C2C(C#N)=C(N)N(c3cccnc3)C3=C2C(=O)CCC3)s1 (stereo not given)	.	.	.	101	-4	i	1.1
Nc1nc(Nc2ccccc2Cl)cc(=O)[nH]1	.	.	.	100	.	i	0.94
O=C(CSc1ncn[nH]1)Nc1ccccc1Sc1ccc(Cl)cc1	-28	161	-2.8	178	-4	i	0.92
COc1ccc(/C=N/Nc2nc(=O)[nH]nc2C)cc1[N+](=O)[O-]	29	115	-0.8	100	12	i	0.85
COC(=O)c1ccc(NC(=O)C(=O)N2CCN(C(=S)NCCc3ccccc3)CC2)cc1	14	112	1.4	104	-7	i	0.96
CCCOc1cccc(C2C(C(=O)c3ccco3)=C(O)C(=O)N2CCN(CC)CC)c1 (stereo not given)	56	63	-1.1	86	11	i	1
CC(C)(C)c1ccc(NC(=O)C(=O)C2C(=O)Nc3ccccc32)cc1 (stereo not given)	29	68	.	110	-2	i	0.73
O=C(NCc1ccco1)C(c1ccccc1)N(C(=O)Cc1cccs1)c1ccccc1 (stereo not given)	-25	128	-3.2	98	2	i	1
Cc1ccc(-n2nnc(-c3nccn3C)n2)cc1	.	.	.	86	-4	i	0.93
Cc1ccc(N=Nc2ccc(C)cc2NC(=O)Nc2ccccc2F)cc1	.	.	.	110	.	i	0.95
C=CC[N+]1(CC#CCOC(c2ccccc2)c2ccccc2)CCOCC1	-71	51	-1.3	103	-1	i	0.98
Nc1cc(=O)n(Cc2ccccc2)c(=O)n1-c1ccc(Cl)cc1	.	.	.	109	.	i	0.97
COc1ccc(NC(=O)NC(C)c2ccncc2)cc1OC (stereo not given)	-32	95	-2.2	83	5	i	0.99
c1ccc(-n2c(Cc3cccnc3)nc3cnccc32)cc1	.	.	-3.1	.	4	i	0.96
CN(Cc1ccccc1)C(=O)COC(=O)c1ccccc1Nc1ccccc1	.	.	0.3	110	1	i	1
O=C(Nc1ccc2c(c1)CCC2)c1ccc(F)c(S(=O)(=O)N2CCOCC2)c1	-62	94	0.3	99	-4	i	0.9
Cn1c(SCC(=O)O)nnc1-c1ccc(NC(=O)c2ccc(Cl)c(Cl)c2)cc1	.	.	.	105	.	i	1.2
NC(=O)C1CCN(C2CC(=O)N(c3ccc(F)c(Cl)c3)C2=O)CC1 (stereo not given)	-86	92	-3.2	106	-5	i	1.1
Cc1cc(NCCCn2ccnc2)n2nc(C)c(-c3ccccc3)c2n1	73	121	-1.6	100	-7	i	0.97
CC(=O)Oc1ccc2oc(=O)c3c(c2c1)CCCN3C(=O)CN1CCN(c2ncccn2)CC1	-9	86	0.1	99	2	i	0.99
CCn1cc(S(=O)(=O)Nc2ccccc2C(F)(F)F)cn1	.	.	.	104	3	i	0.97
C/C(N)=C(/C#N)C(=O)CSc1nnc(COc2ccccc2Cl)o1	-12	135	-0.1	106	2	i	1
CC(=O)c1cc2c(cc1NC(=O)c1cnc(C)cn1)OCO2	21	91	-1.1	100	-4	i	1
Cc1cccc(C)c1NC(=O)C1c2ccccc2Oc2ccccc21	.	.	-2.0	113	0	.	.
CCc1cc(=O)oc2cc(C)cc(O)c12	.	.	-3.2	98	-1	i	0.97
Cc1c(C)n(Cc2ccccc2)c2ccc(C(=O)OCCCN(C)C)cc12	0	139	.	99	0	i	0.69
Cn1nc(C(F)(F)F)c(-c2ccc(Br)cc2)c1NC(=O)CSCC(=O)O	.	.	.	96	.	i	0.95
N#Cc1c(-c2cccs2)cc(-c2ccccn2)nc1N	.	.	1.0	103	-3	i	0.97
Cc1ccccc1Nc1nc(N)nc(CSCC(=O)Nc2cccc(Br)c2)n1	7	96	-1.0	31	-13	i	0.97
Oc1ccccc1CN1CCCN(Cc2ccccc2O)C1	-40	100	-0.9	105	-5	i	0.81
COc1ccc(CCN(C(=O)C(F)(F)F)C(C(=O)NC2CCCCC2)c2cccs2)cc1 (stereo not given)	-38	66	-1.3	140	-8	i	1.1
FC(F)(F)c1nnc2ccc(N3CCCCCC3)nn12	.	.	-2.1	.	-3	i	0.99
CCOC(=O)C1CCCN(c2c(N3CCN(c4ccccn4)CC3)c(=O)c2=O)C1 (stereo not given)	86*	57*	0.1	101	-11	i	0.88
COc1ccc(Oc2ccc(C(F)(F)F)cc2N)cc1	.	.	.	105	.	i	0.96
O=C(COc1ccccc1Cl)Nc1cnn(Cc2ccccc2)c1	31	125	-1.0	101	-5	i	0.85
COc1ccc(C2Nc3ccccc3C(=O)N2c2ccccc2)cc1COc1ccccn1 (stereo not given)	-220	116	-3.7	99	-13	i	1
COc1ccc(N2C(=O)C(CC(=O)Nc3ccc(F)cc3)N(CCc3ccc(OC)c(OC)c3)C2=O)cc1 (stereo not given)	-10	87	.	104	-1	i	0.9
O=C(NCC1CCCO1)C1c2ccccc2Oc2ccccc21 (stereo not given)	.	.	.	103	-5	i	0.91
O=C(Nc1cc(Cl)ccc1Cl)c1ccc(OC(=O)c2ccco2)cc1	-68	123	-0.2	102	-1	i	0.98
CC(C)CCN1CCN(CC#Cc2ccccc2)CC1CCO (stereo not given)	.	.	.	105	-3	i	0.84
COC(=O)c1sc(C(C)(C)C)cc1CSc1ccccc1	.	.	.	101	.	i	1
CCOC(=O)C1=C(C)C(c2ccc(OC)cc2)NC(=S)N1 (stereo not given)	20	100	-0.5	100	4	i	0.93
Cc1ccc(S(=O)(=O)/N=S(\C)CC2CC2(Cl)Cl)cc1 (stereo not given)	.	.	-4.0	99	1	i	0.99
More compounds follow:
SMILES	INS promoter inh	INS promoter inh cell count	GALR2 agonist	RGS16-Gao HTS	PKD1 inh	HSV replic up	HSV replic up primary fold
Cc1c(C(=O)N2CCc3ccccc3C2)sc2nc(-c3ccccc3)cn12	-38	84	-0.9	104	-3	i	0.96
O=C(COc1cccc([N+](=O)[O-])c1)N/N=C/c1ccco1	.	.	.	98	-8	i	0.95
COc1cc(C)ccc1S(=O)(=O)N1CCCCCC1	.	.	.	101	7	i	1
CC1CCc2c(nc3sc4c(c3c2N)CCCC4)C1 (stereo not given)	-143	34	-2.3	103	-5	i	0.74
COc1cccc(Cn2c(Oc3cccc(C)c3)nc3c2c(=O)n(C)c(=O)n3C)c1	-67	51	0.3	105	-9	i	0.99
Cc1ccc(NC(=O)c2ccc([N+](=O)[O-])cc2Cl)nc1	-17	158	0.0	110	-12	i	0.93
COc1ccccc1OCCOc1ccc(/C=N/n2cnnc2)cc1	-38	96	-1.0	102	4	i	1
O=C(NOC(=O)c1cc(Br)ccc1Cl)c1cccs1	8	198	-3.4	92	1	i	0.98
Clc1ncn(CCOc2ccccc2)c1Cl	.	.	.	96	1	i	0.92
COC(=O)c1cc(OC)c(OC)cc1NC(=S)N1CCN(Cc2ccccc2)CC1	.	.	-2.5	100	1	i	0.85
Cc1nn(-c2ccccc2)c2[nH]c(C(F)(F)F)cc(=O)c12	21	68	-0.6	115	-3	i	0.65
O=C(COC(=O)Cc1c[nH]c2ccccc12)NC1CCCCC1	10	89	.	115	6	i	0.98
Cc1nc2cc(Cl)ccc2n1-c1ccccc1	31	149	-0.6	104	-3	i	0.97
CCN(CC)C(=O)Cn1cc(C(=O)C(=O)NCCCn2ccnc2)c2ccccc21	23	131	.	99	-4	.	.
O=C(CSc1nc2ccccc2c(=O)n1-c1ccccc1)N1CCCc2ccccc21	-29	36	0.1	138	1	i	0.84
O=C(O)c1oc2ccccc2c1-n1cccc1	29	83	-0.1	78	-6	i	1
COc1ccc(F)cc1C(=O)C1CCCN(Cc2cn(C)c3ccccc23)C1 (stereo not given)	.	.	.	111	0	i	0.97
Nc1nc(SCc2ccccc2Cl)nc2nc3c(cc12)CCCC3	.	.	-1.0	101	-17	i	0.97
COC(=O)C1c2ccccc2-c2ccccc21	25	103	.	109	4	i	1.1
COc1cccc(CNc2ccc3c(c2)ncn3C(C)C)c1OC	.	.	0.1	89	-4	i	0.84
COc1ccc(COn2c(=O)c(C)[n+]([O-])c3ccccc32)cc1OC	-86	153	0.9	102	-9	i	0.94
CCO[C@H]1OC(C(=O)Nc2ccccc2)=C[C@@H](c2ccc(Br)cc2)[C@@H]1CCCO	.	.	.	124	6	i	0.85
CSc1ccccc1NC(=O)CSc1nncs1	.	.	.	102	4	i	0.93
COc1cccc(NS(=O)(=O)c2ccc(NC(C)=O)cc2)c1	22	132	-2.5	108	-4	i	0.84
Cc1ccc(NC(=O)C(Cc2ccccc2)NC(=O)c2ccco2)cc1 (stereo not given)	-79	121	-0.2	100	-4	i	0.89
O=C(NC1CC1)c1ccc(F)cc1Cl	13	73	-0.5	102	-4	i	0.84
Cc1ccc(S(=O)(=O)NCC2CCC(C(=O)NCCCOC(C)C)CC2)cc1 (stereo not given)	17	137	-1.1	114	-6	i	0.97
CC(C)Nc1nc(NC(N)=S)nc(NC(C)(C)C)n1	.	.	.	104	3	i	1
O=C(Nc1ccccc1)N(CCCN1CCOCC1)Cc1cc2cc3c(cc2[nH]c1=O)OCCO3	50	105	0.2	101	-14	i	1
O=C1CN(Cc2ccccc2)C(=NCc2ccco2)S1	-292	74	-3.9	92	-3	i	0.96

By substructure, the compounds so far containing a thiophene ring, fused or not.
SMILES	INS promoter inh	INS promoter inh cell count	GALR2 agonist	RGS16-Gao HTS	PKD1 inh	HSV replic up	HSV replic up primary fold
CC(=O)c1ccc(C(=O)N2CCc3c([nH]c4ccccc34)C2c2cccc(C)n2)s1 (stereo not given)	.	.	.	104	.	i	0.88
Cc1csc(NC(=O)C2CCCN(S(=O)(=O)c3ccc(Br)s3)C2)n1 (stereo not given)	7	71	-1.0	96	2	i	0.99
Cc1ccc(C2C(C#N)=C(N)N(c3cccnc3)C3=C2C(=O)CCC3)s1 (stereo not given)	.	.	.	101	-4	i	1.1
O=C(NCc1ccco1)C(c1ccccc1)N(C(=O)Cc1cccs1)c1ccccc1 (stereo not given)	-25	128	-3.2	98	2	i	1
N#Cc1c(-c2cccs2)cc(-c2ccccn2)nc1N	.	.	1.0	103	-3	i	0.97
COc1ccc(CCN(C(=O)C(F)(F)F)C(C(=O)NC2CCCCC2)c2cccs2)cc1 (stereo not given)	-38	66	-1.3	140	-8	i	1.1
COC(=O)c1sc(C(C)(C)C)cc1CSc1ccccc1	.	.	.	101	.	i	1
CC1CCc2c(nc3sc4c(c3c2N)CCCC4)C1 (stereo not given)	-143	34	-2.3	103	-5	i	0.74
O=C(NOC(=O)c1cc(Br)ccc1Cl)c1cccs1	8	198	-3.4	92	1	i	0.98
